Source: PubChem BioAssay
ClpP mod: qHTS Assay for Activators of ClpP; 340,000 tested, 1.9% active; ATP-dependent Clp protease proteolytic subunit (Bacillus subtilis (strain 168)), P80244; AID 651965, 2013; Potency, µM (top dose mostly 57.5 µM), for the others: at the top dose activity change, negative = active; purified B. subtilis ClpP, FRET peptide cleavage, 20 min; active = well fitted falling curve with a large enough effect; inconclusive = small, poorly fitted or top-dose-only effect; inactive = no such curve, though single readings can be large or run the other way; further: potency means the concentration at half of the fitted maximal effect; the source files actives as falling curves though it sought activators and does not explain the sign; nearly all actives have a fitted effect of over 65% in size; many hits overshoot -100%
Target sequence (P80244 whole entry, looked up): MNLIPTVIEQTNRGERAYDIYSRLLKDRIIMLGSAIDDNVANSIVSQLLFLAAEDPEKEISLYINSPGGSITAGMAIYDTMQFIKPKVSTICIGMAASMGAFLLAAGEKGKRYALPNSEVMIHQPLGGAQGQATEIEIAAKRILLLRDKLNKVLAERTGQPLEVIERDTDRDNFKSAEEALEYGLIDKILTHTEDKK
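Purified B. subtilis ClpP, 10 microg/mL final in Tris/HCl pH8 with KCl, BSA, glycerol and Tween-20, cleaved an Abz/nitrotyrosine-quenched decapeptide. Fluorescence (ex 320, em 430) was read at 0 and 20 min at room temperature. Delta was normalized to 5.8 microM ADEP and DMSO/no-enzyme controls.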
TRPML1 blocker: human mucolipin-1 channel inhibition. TRPML1-inducible cells, Ca2+ dye fluorescence, FDSS; hits give low values; inhibition of EC80 agonist-evoked calcium signal. activity change, negative = inhibition, % (no concentration beside the values). Q9GZU1. 390,000 tested, 0.02% active. AID 624415; in the data active means activity change below about -50%; inconclusive means about -30% to -50%; inactive means above about -30%;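 further: stimulus is agonist 54-4 at its EC80 concentration; on the % scale 0 is the no-effect control and ±100 the full control effect; compound concentration not given in the record; the text of the record puts the active cut at -80%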
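TRPML1-DL cells, Tet-induced overnight (~16 h, 37 °C) at 1,500 cells/well, were loaded with Ca8 no-wash dye plus quencher for 45-90 min at room temperature. Compounds were pinned during FDSS kinetic reading; agonist 54-4 at EC80 (4 uM final) then added.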
Menin MLL FP FL: displaces fluorescein MLL peptide from human menin; 290,000 tested, under 10 active; FP activity change, % at 61.4 µM; Fluorescence polarization, fluorescein-MLL peptide displacement from menin; inconclusive = falling polarisation curve, or a change in total fluorescence; inactive = total fluorescence flat and polarisation flat or rising; no compound was filed as active; the % refers to the polarisation; negative = inhibition;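 further: % of control where 0% means no effect; inhibitors lower the polarisation; unlabelled MLL peptide was the positive control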
PINK1 modulator: changes PINK1 expression; Potency, µM (highest dose often 76.6 µM), inactives show at the highest dose activation (PINK1 increase), actives largely listed as activators; PINK1 immunofluorescence, high-content cytometry, 24 h; 410,000 tested, 0.2% active; active = well fitted activation curve with a large enough effect; inconclusive = small, poorly fitted or top-dose-only effect; inactive = flat fitted curve, though single readings scatter; cell line not stated here;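 further: potency means the concentration at half of the fitted maximal effect; % of control where 0% means no effect; nearly all actives have a fitted effect of over 65% in size; a mitochondrial uncoupler was the plate control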
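Compound titrations (5 concentrations, 24 h) on a stable cell line; DMSO and CCCP controls. Endpoint: fixed-cell PINK1 immunofluorescence with mitochondrial, cell and nuclear markers, scanned by microplate cytometer.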
TRPML1 agonist: human mucolipin-1 channel agonism. Q9GZU1. TRPML1-expressing cells, Ca2+ dye fluorescence, FDSS; host cell line not named in the record; reference of the full effect not given here. activation, % (test concentration not listed). 410,000 tested, 0.12% active. AID 624414; in the data active = activation above about 50%; inconclusive = about 30% to 50%; inactive = below about 30%; further: 0% is about no effect; the text of the record puts the active cut at 80%
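TRPML1-DL cells, Tet-induced overnight (~16 h, 37 degrees C), loaded 45-90 min at room temperature with Ca8 no-wash calcium dye plus quencher. FDSS fluorescence: 10 s baseline, compound pin-transfer, 110 s agonist read, then EC80 54-4 (4uM final) and 110 s antagonist read.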
Sfp PPTase inh: blocks B. subtilis Sfp PPTase activity | Potency, µM, for inactives: max response, negative = inhibition, usual class: inhibitors | Q9F4F7 | 310,000 tested, 3.5% active | AID 1490 | Biochemical Sfp PPTase activity, qHTS; active means well fitted inhibition curve with a large enough effect; inconclusive means small, poorly fitted or top-dose-only effect, or another doubt; inactive means no such curve, though single readings can be large or run the other way;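 further: the enzyme is Sfp with the accession as filed and its product quenches rhodamine fluorescence; potency means the concentration at half of the fitted maximal effect; 0% = enzyme reaction without inhibitor and -100% = no enzyme wells; top concentration of the series not given in the record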
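Compounds were incubated with enzyme (final 15 nM) for 15 min at room temperature before substrate addition started the reaction. Fluorescence at 525 nm excitation, 598 nm emission was recorded immediately and after 30 minutes.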
TRPV1 potentiator: potentiators of human vanilloid receptor 1 (TRPV1) | Q8NER1 | TRPV1-expressing cells, Fluo-8 calcium influx, capsaicin EC20 potentiation; host cell line not named in the record; control for the full effect not named in the record | potentiation, % at 8.33 µM | 320,000 tested, 0.02% active; active means potentiation above 80%; inconclusive means 30% to 80%; inactive means below 30%; further: 0% is about no effect
Target sequence (Q8NER1 whole entry, looked up): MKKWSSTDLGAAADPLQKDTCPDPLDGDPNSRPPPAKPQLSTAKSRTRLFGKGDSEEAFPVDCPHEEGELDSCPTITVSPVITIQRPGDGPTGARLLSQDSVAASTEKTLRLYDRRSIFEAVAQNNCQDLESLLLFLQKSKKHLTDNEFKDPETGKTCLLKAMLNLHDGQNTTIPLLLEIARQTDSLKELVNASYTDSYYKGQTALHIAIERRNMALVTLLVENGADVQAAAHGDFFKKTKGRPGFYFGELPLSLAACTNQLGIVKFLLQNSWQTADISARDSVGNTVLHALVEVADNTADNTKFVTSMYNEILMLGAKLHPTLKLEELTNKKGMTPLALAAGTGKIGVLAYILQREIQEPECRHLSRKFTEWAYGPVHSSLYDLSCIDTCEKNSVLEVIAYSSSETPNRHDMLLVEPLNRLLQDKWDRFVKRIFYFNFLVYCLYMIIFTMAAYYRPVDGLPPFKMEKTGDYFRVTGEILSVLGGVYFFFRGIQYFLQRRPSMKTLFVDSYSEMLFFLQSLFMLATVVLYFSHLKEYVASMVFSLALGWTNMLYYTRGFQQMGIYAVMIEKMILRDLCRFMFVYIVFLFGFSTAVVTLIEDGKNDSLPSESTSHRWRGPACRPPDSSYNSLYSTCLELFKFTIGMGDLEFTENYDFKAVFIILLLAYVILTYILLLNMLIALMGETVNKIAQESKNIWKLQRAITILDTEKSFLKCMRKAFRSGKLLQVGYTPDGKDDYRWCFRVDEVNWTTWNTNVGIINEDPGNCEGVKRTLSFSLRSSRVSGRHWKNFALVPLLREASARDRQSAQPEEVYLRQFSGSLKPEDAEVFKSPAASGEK
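Cells expressing TRPV1 were dye-loaded with Fluo-8 and read kinetically: 10 s baseline, 3 min after compound (agonist portion), then 2 min after EC20 capsaicin (allosteric enhancer portion). Calcium-bound dye fluorescence at 480/520 nm.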
* = called active by the depositor; ? = inconclusive; . = no result given; [ ] = dose if it differs, or a comment.

SMILES	ClpP mod	TRPML1 blocker	Menin MLL FP FL	PINK1 modulator	TRPML1 agonist	Sfp PPTase inh	TRPV1 potentiator
COCCNCC(=O)N1CCCCCC1	-1.7%	10	2.4	1.1%	-0.6	0%	-3
COc1ccccc1NC(=O)c1cc(-c2ccc(C)o2)nc2ccccc12	.	37	5.6	10%	0.8	-5%	-10
CCC(C)(C)NC(=O)C(C(C)C)N(CC1CCCO1)C(=O)CNS(=O)(=O)c1ccc(F)cc1 (configuration not stated)	.	-21	.	0.0%	-0.6	25%	-8
FC(F)(F)c1cccc(OCc2noc(-c3ccsc3)n2)c1	.	-17	-0.1	6.1%	2.9	15%	1
O=C(NCCN1CCOCC1)C(=O)NCC1OCCN1S(=O)(=O)c1cc(F)ccc1F (configuration not stated)	-0.6%	2	1.7	4.3%	-0.2	9%	-2
CS(=O)(=O)Nc1ccc(Br)cc1C(=O)c1ccccc1	-1.0%	9	0.3	0.4%	0.5	-2%	-2
CC(=O)c1cccc(NC(=O)c2ccc(C(=O)Nc3cccc(C(C)=O)c3)nc2)c1	2.2%	9	-3.0	5.9%	0.5	-2%	16
CCOc1ccc(S(=O)(=O)N2CCN(C(=O)C3CC3C)CC2)cc1 (configuration not stated)	.	-12	.	-0.2%	-0.4	.	.
Cc1occc1-c1nnc(SCC(=O)N2CCCc3ccccc32)n1Cc1ccco1	1.4%	-11	4.7	-1.9%	-0.1	-11%	-2
O=C(Nc1ccc(F)cc1)N1CCOCC1	-0.2%	-9	-3.4	.	-0.3	8%	6
COc1ccc(OC)c(-n2c(-c3ccc(O)cc3O)n[nH]c2=S)c1	.	8	-1.0	-0.1%	0.8	89µM*	-6
O=C(CNC(=O)c1cccc([N+](=O)[O-])c1)NC1CCCc2ccccc21 (configuration not stated)	1.2%	0	.	0.7%	0.0	.	18
CCOc1ccccc1C(=O)NCC(=O)Nc1ccc2c(c1)OCO2	1.2%	0	.	7.8%	2.0	.	6
Cc1ccc(Cl)cc1N1CCN(C(=O)Cn2nc(C)n3c(cc4sccc43)c2=O)CC1	-7.2%	13	.	-0.3%	1.6	.	.
COc1ccccc1N1CCN(C(=O)c2ccccc2Oc2ccccc2)CC1	0.6%	-11	1.2	1.8%	1.5	11%	-1
CCN(CC)S(=O)(=O)c1ccc(NC(=O)c2cccs2)cc1	.	20	-2.6	-0.4%	0.4	13%	-10
Cc1ccc(S(=O)(=O)NC(CC(C)C)C(=O)N2CCOCCOCCOCC2)cc1 (configuration not stated)	-1.5%	-1	-1.3	0.7%	-0.4	11%	-17
COC(=O)C(C)(C(=O)OC)c1ccc(C(F)(F)F)cc1[N+](=O)[O-]	.	-1	-4.3	0.4%	0.0	21%	8
O=C(Nc1ccc(F)cc1F)c1cccc(C(=O)Nc2ccc(F)cc2F)n1	-0.4%	-17	7.0	3.9%	0.0	-8%	2
COc1cccc(NC(=O)CC(=O)c2ccccc2)c1	.	-8	-0.9	4.6%	0.5	1%	-15
CC(CCc1ccccc1)NCc1cccc2ccccc12 (configuration not stated)	0.3%	.	-6.5	?	.	-6%	6
Cn1cc(S(=O)(=O)N2CCN(C(=O)c3ccco3)CC2)c(=O)n(C)c1=O	0.5%	-5	0.8	1.4%	0.0	-6%	.
CC(=O)c1c(C)[nH]c(C(=O)OCc2c(F)cccc2Cl)c1C	.	-5	1.1	6.0%	1.9	-5%	3
Cc1cc(OC(C)C(=O)NCc2ccncc2)c2c(C)c(C)c(=O)oc2c1 (configuration not stated)	3.5%	-16	1.3	6.2%	1.0	-1%	-6
CN1CCN(C(=O)C2Cc3c(-c4cccc(F)c4)ccnc3O2)CC1 (configuration not stated)	-9.4%	.	.	-0.4%	-0.4	.	.
Cc1csc(NC(=O)C2CCCN(S(=O)(=O)c3ccc4c(c3)oc(=O)n4C)C2)n1 (configuration not stated)	1.2%	-19	-1.2	-0.9%	-0.1	-2%	-6
COc1ccc(NC(=O)C2(C)CCN2Cc2ccc(SC)cc2)cc1OC (configuration not stated)	-3.3%	.	.	1.9%	-0.6	.	.
CC(C)OC(=O)c1sc2nc(-c3ccccc3)ccc2c1N	?	-12	-0.6	12%[38.3 µM]	1.6	-18%	4
COc1cc(C(=O)Nc2nc(-c3cc(C)ccc3C)c(C)s2)ccc1OCC(=O)Nc1ccc(F)cc1	12%	18	-2.8	12%	-0.4	-1%	-11
CCOC(=O)c1cnc2c(Cl)c(Cl)ccc2c1Nc1ccc(N(C)C)cc1	0.5%	-6	.	-4.5%	0.6	.	.
COc1ccccc1NC(=O)CN(Cc1ccco1)C(=O)c1ccc(Cl)nc1	-3.7%	-15	2.1	0.7%	-0.4	10%	2
CSc1nsc(SC)c1C(=O)O	.	-3	1.3	-3.0%	-0.4	21%	-7
Cc1cc(C)nc(CC(N)=O)n1	1.3%	-4	0.1	-0.5%	-1.1	16%	8
Cc1ccc(O)c(C(CC(=O)NCc2cccnc2)c2ccccc2)c1 (configuration not stated)	.	15	3.6	1.5%	-0.5	0%	4
C#CCSc1nc2ccccc2n1C(=O)c1ccc(S(=O)(=O)N2CCCCC2)cc1	1.3%	-1	4.3	-0.8%	0.8	1%	19
COc1cc2c(C#N)c(N3CCCCC3)nc(N)c2c(N)n1	28µM*	-1	0.8	-1.6%	-0.4	-5%	-1
COCc1cc(C)nc(OCC(=O)N/N=C/c2ccc(C)cc2)c1C#N	-3.5%	-4	4.0	14%	1.6	7%	-3
Cc1ccc(C)c(N2CCN(C(=O)Cn3ncc4c([nH]c5ccc(C)cc54)c3=O)CC2)c1	-2.4%	-1	.	0.7%	4.0	25%	-3
Cc1cccc(C(=O)Nc2nnc(S(=O)(=O)N3CCCCCC3)s2)c1	0.3%	-7	1.4	4.8%	-0.2	29%	4
COC(=O)c1ccc(CNC(=O)CSc2nc3ccccc3[nH]2)cc1	.	0	2.8	0.8%	-0.7	18%	-13
CCOc1ccc(CNC(=O)c2ccc3c(c2)nc2n3CCCCC2)cc1	-4.2%	-2	.	1.2%	-1.1	.	.
CCC(=O)Oc1ccc(C(=O)Nc2c[nH]c(=O)[nH]c2=O)cc1	-5.5%	-3	0.7	2.2%	-0.2	-12%	6
O=C(COC(=O)c1cc(NS(=O)(=O)c2cccs2)ccc1O)Nc1cc(Cl)ccc1Cl	3.3%	12	1.4	8.7%	-0.6	-12%	11
Cc1cc(C)n(-c2nc(C)nc3sc4c(c23)CCC(C)C4)n1 (configuration not stated)	?	-1	-0.4	-2.2%[38.3 µM]	0.6	12%	-10
O=C(O)c1cccc(N2C(=O)CCC2=O)c1	.	.	-4.3	.	.	4%	7
Cc1cc(C)cc(NC(=O)c2cccc(C(=O)Nc3cc(C)cc(C)c3)c2)c1	0.9%	6	.	0.4%	0.6	.	.
CC(=O)NC1(C(=O)O)CCCC1	.	-1	0.3	0.7%	0.0	5%	1
O=C(Nc1ccc(Cl)cc1)[C@@H]1[C@@H]2C(=O)N(c3ccc(Cl)cc3Cl)C(=O)[C@@H]2[C@H]2C=CC=NN21	.	.	1.4	.	.	-10%	-11
COc1cccc(C2=NOC(C(=O)Nc3c(C)n(C)n(-c4ccccc4)c3=O)C2)c1 (configuration not stated)	-2.4%	-6	-1.3	-0.2%	0.1	-2%	-16
Cc1ccccc1CN1C(=O)c2ccccc2C1c1nnnn1-c1ccc2c(c1)OCCO2 (configuration not stated)	-0.2%	.	.	3.0%	1.7	.	.
O=C(O)CCc1[nH]c2ccccc2c1Sc1ccccc1	-0.9%	8	2.2	5.0%	-1.3	15%	8
CC(Cl)C(=O)c1c(N)n(C)c(=O)n(C)c1=O (configuration not stated)	-2.3%	-14	4.2	-1.6%[38.3 µM]	2.0	-1%	2
Cc1ccc2c(c1)N(C(=O)Nc1cccc3c1CCCC3)CCO2	0.2%	-10	.	2.5%	0.1	.	.
Cc1ccc(S(=O)(=O)NCc2ccccc2)cc1C(=O)N(C)CC(=O)Nc1c(Cl)cccc1Cl	-0.7%	-2	.	3.6%	-1.1	.	10
CC(C)c1ccc(NS(=O)(=O)c2ccc3[nH]cc(C(=O)N4CCC(C(N)=O)CC4)c(=O)c3c2)cc1	-22%	-2	1.5	-0.8%	3.0	-5%	9
Cc1cccc(NC(=O)Nc2c(C)n(C)n(-c3ccccc3)c2=O)c1	.	1	-4.8	3.7%	1.6	-6%	-2
S=C(Nc1ccccc1)N1CCN(C(=S)Nc2ccccc2)CC1	.	.	-0.1	.	.	26%	-1
Cc1ccc(C)c2[nH]c(=O)c(CCNC(=O)CC(C)(C)C)cc12	-23%	-4	2.3	-0.8%	-0.3	17%	?
CCCS(=O)(=O)Nc1c(C(=O)O)[nH]c2ccc(OC)cc12	.	2	3.7	-0.9%	-1.0	6%	0
O=C1COc2ccc(C(=O)COC(=O)c3ccccc3[N+](=O)[O-])cc2N1	?	-9	.	0.0%	2.0	.	-3

Full records, looked up by structure. Order of values: ClpP mod, TRPML1 blocker, Menin MLL FP FL, PINK1 modulator, TRPML1 agonist, Sfp PPTase inh, TRPV1 potentiator
Record of `Cc1ccc(C)c2[nH]c(=O)c(CCNC(=O)CC(C)(C)C)cc12` : -23%, -4, 2.3, -0.8%, -0.3, 17%, ?
Record of `Cc1ccc2c(c1)N(C(=O)Nc1cccc3c1CCCC3)CCO2` : 0.2%, -10, ., 2.5%, 0.1, ., .

Further results:
SMILES	ClpP mod	TRPML1 blocker	Menin MLL FP FL	PINK1 modulator	TRPML1 agonist	Sfp PPTase inh	TRPV1 potentiator
Cc1cc(C)nc(N2CCC(C(=O)NCCc3ccccc3)CC2)n1	-11%	-9	3.8	0.5%	-0.3	16%	14
O=c1oc2ccccc2c(N2CCN(c3ccc(F)cc3)CC2)c1CN1CCCC1	0.7%	7	.	-0.9%	0.1	.	.
Cc1cc(C)c2nc(SCC#N)cc(C)c2c1	-1.0%	18	0.2	-0.9%[38.3 µM]	0.9	-12%	1
Oc1ccc(C=Nc2ccccc2-c2nc3ccccc3[nH]2)cc1	0.6%	18	6.0	7.7%	3.1	-13%	3
CN(C)c1ccc(CN(C(=O)/C=C/c2ccco2)C2CCS(=O)(=O)C2)cc1 (configuration not stated)	-3.2%	15	0.9	0.5%	0.2	-2%	-3
